HCMV NEC inh – inhibitors of HCMV UL50-UL53 interaction, biochemical, HTRF; HCMV UL50-UL53 nuclear egress complex (human cytomegalovirus); normalized percent inhibition; inhibition, % (concentration not given with the values); 190,000 compounds, 0.15% hits; AID 1918969, 2023;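 active = both replicates at 50% or more, plus weaker picks with an unusually low signal ratio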;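 also: stock transfer was 100 nL into about 20 µL; 0% = negative control wells and 100% = wells with untagged competitor protein; inactives centre near -12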
GIV-Gai inh – inhibitors of GIV peptide binding to Galpha-i3, primary screen, biochemical, fluorescence polarization, FITC-GIV GBA peptide, rat Galphai3; 90 min; active compounds read low; scaled: aluminum fluoride 0%, vehicle 100%; Guanine nucleotide-binding protein G(i) subunit alpha-3 (Rattus norvegicus), P08753; percent of control (FP), % (no concentration beside the values); AID 1224905, 2016; 210,000 compounds, 0.42% hits;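 active = replicate mean at 85% of control or lower, very high polarization wells dropped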;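 also: wells of about 15 µL received 100 nL stock; the first replicate is given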
Target sequence (P08753 whole entry, looked up): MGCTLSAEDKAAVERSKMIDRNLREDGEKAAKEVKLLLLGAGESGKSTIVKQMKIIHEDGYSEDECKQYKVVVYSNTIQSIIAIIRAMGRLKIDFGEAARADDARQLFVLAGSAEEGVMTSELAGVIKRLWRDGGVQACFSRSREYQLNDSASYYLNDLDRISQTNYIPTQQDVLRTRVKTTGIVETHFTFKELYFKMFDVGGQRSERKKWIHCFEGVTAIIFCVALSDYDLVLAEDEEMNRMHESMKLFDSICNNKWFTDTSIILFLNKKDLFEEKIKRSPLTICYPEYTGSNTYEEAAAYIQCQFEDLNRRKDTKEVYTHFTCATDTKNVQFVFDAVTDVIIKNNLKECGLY
Sa growth inh – S. aureus growth inhibition at 42 and 30 °C, primary screen, LtaS inhibitor project, RN4220, two temperatures. relative growth, % (test concentration not listed). 170,000 compounds, 0.53% hits. AID 720641, 2013. OD600, 20 h, 42 °C; active compounds read low;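 active = growth at 42 °C up to 50% and 20 or more points under that at 30 °C, or under 10% at both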;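 also: 300 nL library stock went into each well; scaled to the means of positive and negative controls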
Sa growth inh second temp – second read-out of Sa growth inh, no call of its own (marks repeat the call); relative growth, %; measured here: growth at 30 °C;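 optical density after 20 h as mean of two plates; 100% = untreated growth and lower means inhibition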
The depositor's hits bear a star; . = no result given; & = joins results of further samples.

SMILES	HCMV NEC inh	GIV-Gai inh	Sa growth inh	Sa growth inh second temp
O=C(N/N=C1\CCc2ccccc21)c1cc(-c2ccco2)nc2ccccc12	-23	.	89	86
CCN(CC(=O)N1CCc2ccccc2C1)S(=O)(=O)c1ccc(OC)cc1	-17	97	100	93
CC(=O)Nc1c(I)cc(I)c(C(=O)O)c1I	-18	.	97	93
CC(C)OCCCn1c(=O)c2ccccc2n2c(-c3cc(Cl)ccc3O)nnc12	7	101	99	97
COc1ccc(-c2oc3ncn(Cc4ccccc4)c(=N)c3c2-c2ccc(OC)cc2)cc1	.	103	92	91
Cc1cc(C)c(NC(=O)CSCc2cnc(C)c(O)c2CO)c(C)c1	.	99	99	92
O=C(NCc1ccccc1)NC1COc2ccccc2C1 (stereo unspecified)	.	102	98	92
Cc1ccc(CNC(=O)CN(c2cccc(C)c2C)S(=O)(=O)c2ccccc2)cc1	-3	98	100	84
CNC(=O)CC1C(=O)N(C)C(=S)N1NC(=O)c1ccc(Cl)cc1 (stereo unspecified)	-15	103	112	94
O=C(Nc1cccnc1)c1ccc(Br)o1	-10	.	96	84
Cc1cc(N2CCCC2)n2nc(-c3ccc(C(C)(C)C)cc3)nc2n1	-12	105	.	.
O=C(NCc1ccc2c(c1)OCO2)C(Cc1ccccc1)n1cccc1 (stereo unspecified)	-3	103	91	83
COc1ccc(C)cc1NCC(O)Cn1nnnc1-c1ccccc1 (stereo unspecified)	-13	100	.	.
CCc1nc2c(cnn2-c2ccc(Cl)cc2)c(=O)n1-c1ccc(OC)c(Cl)c1	-9	104	102	87
CSC(=CC(=O)c1cccc2ccccc12)SC	-24	99	97	72
Cn1c(CN(c2ccc(F)cc2)S(C)(=O)=O)nnc1SCC(=O)Nc1cc(F)cc(F)c1	8	101	.	.
COc1ccc(-c2cc(N3CCN(S(=O)(=O)c4cc(OC)ccc4OC)CC3)ncn2)cc1	-13	101	.	.
COc1ccc(CCNC(=O)c2nn(C)c3c2COc2ccccc2-3)cc1OC	-22	97	99	76
CCCCn1c(=O)c2oc3ccccc3c2n(CC(N)=O)c1=O	.	100	102	90
Cc1cccc(OCc2nc(C)c(C(=O)Nc3nnc(C4CC4)s3)s2)c1	-12	105	.	.
COc1cc(OC)c(NC(=O)Cn2c(=O)n(C)c(=O)c3ccccc32)cc1Cl	-14	101	84	85
CN(C/C=C/C#CC(C)(C)C)Cc1cccc2ccccc12	-18&-50	94	95&86&87	93&81&82
N/C(CS(=O)(=O)Cc1cccc(C(F)(F)F)c1)=N\O	-15	105	117	92
O=c1[nH]nc(Sc2ncnc3sc4c(c23)CCCCC4)n1CC1CCCO1 (stereo unspecified)	-19	.	63	85
O=c1c(C=NCc2ccc3c(c2)OCO3)c(O)n(C2CCCCC2)c(=O)n1C1CCCCC1	-4	96	107	111
CN(C)C(=O)c1cccc2c1NC(c1ccc([N+](=O)[O-])cc1)C1CC=CC21 (stereo unspecified)	-18	96	.	.
CCCNc1cc(C)nc2c(-c3ccc(Cl)cc3)c(C(F)(F)F)nn12	-3	105	.	.
Cc1ccc2c(c1)N(CCCC(=O)N1CCN(C)CC1)C(=O)CO2	-4	110	.	.
CSc1cccc(NC(=O)c2cnn3ccccc23)c1	.	97	87	83
CCOc1ccc(Cl)cc1S(=O)(=O)N1CCC(C(=O)NC(C)COC)CC1 (stereo unspecified)	-15	103	107	88
O=C(NCC1CCCO1)c1cccc(-n2cnnn2)c1 (stereo unspecified)	-20	.	96	95
O=c1[nH]c(Nc2nc(-c3ccccc3)c3cc(Cl)ccc3n2)nc2c1CCC2	0	100	90	90
COc1ccc(N2CCN(Cc3ccc(Cl)nc3)CC2)cc1	-19	105	.	.
Cc1ccc(OCC(=O)Nc2cccnc2)c(-n2nc3ccccc3n2)c1	-36	98	85	77
CCCOC(=O)CCc1n[nH]c(=O)[nH]c1=O	-15	103	80	86
COc1ccc2c(c1)CCCC21SC(NC(C)=O)=NN1C(C)=O (stereo unspecified)	-8	.	104	82
CCC(Sc1nc(C)c(Cc2ccccc2)c(=O)[nH]1)C(=O)O (stereo unspecified)	-11	107	92	86
CC(C)(O)C(=O)OCC(=O)c1ccc(Cl)cc1	-6	100	103	96
Cc1ccc(N(CC(C)C)S(=O)(=O)c2nnc(NC(=O)c3ccco3)s2)cc1	-32	106	71	62
COc1ccccc1CN1CCCC1	0	103	99	112
CCCCN(CC)C(=O)c1cc2cc3cc(OC)ccc3nc2s1	.	109	57	34
COC(=O)C1=C(C)NC2=C(C(=O)CC(c3ccccc3)C2)C1c1ccc(N(C)C)cc1 (stereo unspecified)	.	100	94	84
S=c1[nH]nc(Nc2ccc(I)cc2)s1	10	102	33	42
Cc1ccc(NC(=O)COC(=O)CN2CCCCCC2=O)cc1C	-32	.	98	97
Cc1nc(N2CCOCC2)c2c(C(=O)Nc3cc(C)on3)c(C)oc2n1	8	100	.	.
Nc1ccc2[nH]c(=O)nc(-c3ccccc3)c2c1	-99	101	91	83
Cn1cc(S(=O)(=O)N2CCCC2)cc1C(=O)Nc1ccc(F)cc1F	-15	101	106	80
Cc1ccc(NC(=O)CCc2nc3cccnc3n2-c2ccccc2)cc1	-38	106	104	89
COc1c(Cl)cc(C(=O)N(Cc2ccc(C)o2)C2CCS(=O)(=O)C2)cc1Cl (stereo unspecified)	-7	100	114	84
CN(C)c1ncnc2c1c(-c1ccccc1)cn2-c1cccc(Cl)c1	-30	101	.	.
COc1ccc(OC)c(NC(=O)CSC2=Nc3ccccc3C3=NC(CC(=O)NCCc4ccccc4)C(=O)N23)c1 (stereo unspecified)	.	100	69	76
FC(F)(F)c1c(-c2nc(-c3ccc(Cl)cc3)no2)cnn1-c1ccccc1	-28	100	85	87
CN(C)c1ccc(C(CNC(=O)c2cccc(Br)c2)N2CCc3ccccc3C2)cc1 (stereo unspecified)	-9	104	.	.
O=C(O)CCn1cnc2sc3c(c2c1=O)CCCC3	5	99	111	108
COc1ccccc1N(C)S(=O)(=O)c1ccc(C)c(C(=O)O)c1	-13	.	119	92
Cc1ccc(-n2nc(N3CCN(C(=O)NC(C)C)CC3)ccc2=O)cc1C	-47	107	.	.
COc1ccc(C)cc1Nc1nc2c(S(=O)(=O)c3cc(C)ccc3C)nnn2c2ccsc12	.	102	106	82
COC(=O)c1c(NC(=O)c2snnc2C)sc2c1CCCC2	-11	95	.	.
COc1cccc(-c2nc(CS(=O)(=O)CC(=O)NCCc3ccccc3)c(C)o2)c1	.	99	125	94
C=CCn1c(SCc2ccccc2)nnc1-c1ccc2ncccc2c1	-34	102	99	72

A draw from above in order of formula weight, low to high.
SMILES	HCMV NEC inh	GIV-Gai inh	Sa growth inh	Sa growth inh second temp
Cc1cc(C)c(NC(=O)CSCc2cnc(C)c(O)c2CO)c(C)c1	.	99	99	92
CCc1nc2c(cnn2-c2ccc(Cl)cc2)c(=O)n1-c1ccc(OC)c(Cl)c1	-9	104	102	87
Cc1ccc(CNC(=O)CN(c2cccc(C)c2C)S(=O)(=O)c2ccccc2)cc1	-3	98	100	84

The main list resumes; the 3 compounds before the break are reprinted first.
SMILES	HCMV NEC inh	GIV-Gai inh	Sa growth inh	Sa growth inh second temp
COC(=O)c1c(NC(=O)c2snnc2C)sc2c1CCCC2	-11	95	.	.
COc1cccc(-c2nc(CS(=O)(=O)CC(=O)NCCc3ccccc3)c(C)o2)c1	.	99	125	94
C=CCn1c(SCc2ccccc2)nnc1-c1ccc2ncccc2c1	-34	102	99	72
CC1CCCC(NC(=O)Cn2nnc(-c3ccc(Cl)cc3)n2)C1C (stereo unspecified)	-17	.	130	103
CCc1c(C)sc2nc(CC(=O)N3CCOCC3)[nH]c(=O)c12	-14	.	108	91
COc1cc(OC)cc(C(=O)Nc2cccc(N3CCCS3(=O)=O)c2)c1	16	98	.	.
Cc1[nH]c2ccc(-c3nnc(SCC(=O)c4ccccc4F)o3)cc2c1C	2	100	101	73
C/C=C/C=N/Nc1nc(C)cc(=O)[nH]1	-2	97	99	89
CCCCSC1=NC(C)(C)CC(C)O1 (stereo unspecified)	2	102	102	106
CCOc1ccc(-c2cn3c(n2)sc2cc(C(=O)NCCCN4CCCCCC4)ccc23)cc1	.	112	113	75
O=C(Cn1ccc2cc(S(=O)(=O)N3CCCCC3)ccc21)NCCc1ccc(Cl)cc1	.	104	112	92
CCN1C(=O)CC(c2ccc(OC)cc2)Sc2ccccc21 (stereo unspecified)	.	102	89	85
CCC(C)NC(=O)c1cn(CCOC)c(=O)c2c1c1ccccc1n2C (stereo unspecified)	.	107	84	76
O=C(Cn1cnc2onc(-c3ccc(Cl)cc3)c2c1=O)NCc1ccccc1Cl	-31	102	92	80
N#CCCSc1nnc(-c2cccnc2)o1	-31	102	86	86

Ordered by the number under GIV-Gai inh (rising): some entries from above
| SMILES | GIV-Gai inh | Sa growth inh second temp |
| --- | --- | --- |
| C/C=C/C=N/Nc1nc(C)cc(=O)[nH]1 | 97 | 89 |
| COc1cc(OC)cc(C(=O)Nc2cccc(N3CCCS3(=O)=O)c2)c1 | 98 | . |
| Cc1[nH]c2ccc(-c3nnc(SCC(=O)c4ccccc4F)o3)cc2c1C | 100 | 73 |
| CCN1C(=O)CC(c2ccc(OC)cc2)Sc2ccccc21 (stereo unspecified) | 102 | 85 |
| O=C(Cn1ccc2cc(S(=O)(=O)N3CCCCC3)ccc21)NCCc1ccc(Cl)cc1 | 104 | 92 |
| CCC(C)NC(=O)c1cn(CCOC)c(=O)c2c1c1ccccc1n2C (stereo unspecified) | 107 | 76 |
| CCOc1ccc(-c2cn3c(n2)sc2cc(C(=O)NCCCN4CCCCCC4)ccc23)cc1 | 112 | 75 |

(list continues)
SMILES	HCMV NEC inh	GIV-Gai inh	Sa growth inh	Sa growth inh second temp
Cc1cccc(-n2c3nc(=O)n(C)c(=O)c-3cc3c(C)nn(-c4ccccc4)c32)c1C	-18	102	110	87
Cc1ccc2c(=O)c(C(=O)c3ccc(F)cc3)cn(CC(=O)NCc3ccccc3Cl)c2n1	.	114	93	96
CCOC(=O)c1c(NC(=O)c2cc3ccccc3c(=O)s2)sc2c1CCC(C)C2 (stereo unspecified)	-26	106	.	.
CCN1C(=O)c2cccc3c(NC(=S)NC(=O)c4ccccc4)ccc1c23	.	-24*	93	76
CN(C)c1ccc(C2CC(c3c(O)n(C4CCCCC4)c(=O)[nH]c3=O)=Nc3ccccc3S2)cc1 (stereo unspecified)	-14	143	112	89
Cc1csc(=O)n1CCC(=O)O	-3	.	94	90
Nc1c(-c2ccc(Cl)cc2)cnc2c(-c3ccccc3)cnn12	-21	95	.	.
Cc1nc2ccccc2n1CCc1nc2c3ccccc3nc(SCc3cccc(F)c3)n2n1	.	102	87	84
CCOC(OCC)c1ccc(C=C(C#N)C#N)cc1	-24	134	84	73
COc1ccc(Cl)cc1NC(=O)Cn1cnc2sc(C)c(S(=O)(=O)N3CCN(c4ccccc4OC)CC3)c2c1=O	-28	100	82	97
O=C(NC1CCCC1)c1cnc2sc3c(n2c1=O)CCC3	-4	98	.	.
COc1ccc(NC(=O)c2nnc(CCCC(=O)NCCc3c[nH]c4ccc(Cl)cc34)s2)cc1	-38	106	.	.
COC(=O)Cc1cc(=O)[nH]c(/N=C(\N)Nc2ccc(C(C)C)cc2)n1	-32	98	88	88
